VACV Venus inh: qHTS for Stage-Specific Inhibitors of Vaccinia Orthopoxvirus: Venus Reporter Primary qHTS. Vaccinia virus Venus reporter expression, fluorescence. Potency, µM (series often up to 36.5 µM), for inactives: top-dose activity change, negative = inhibition, most hits filed as inhibitors. 0.46% of 330,000 active; active means well fitted inhibition curve with a large enough effect; inconclusive means small, poorly fitted or top-dose-only effect; inactive means no such curve, though single readings can be large or run the other way; tested in A549 cells; further: nearly all actives have a fitted effect of over 30% in size; inactives centre near -10
Vaccinia mCherry: qHTS for Stage-Specific Inhibitors of Vaccinia Orthopoxvirus: mCherry Reporter Primary qHTS | Potency, µM (top dose mostly 36.5 µM), inactives show at the top dose activity change, negative = inhibition, most hits filed as inhibitors | 0.63% of 310,000 active | Vaccinia virus mCherry reporter infection, fluorescence; about a quarter of the inactives have no number; active = well fitted inhibition curve with a large enough effect; inconclusive = small, poorly fitted or top-dose-only effect; inactive = no such curve, though single readings can be large or run the other way; tested in A549 cells; further: nearly all actives have a fitted effect of over 35% in size; inactives centre near -10
Starred values were filed as active, the others as inactive; [ ] = remark or other dose. On the % scale 0 is the no-effect control and ±100 the full control effect; potency means the concentration at half of the fitted maximal effect.

COc1ccc(C[C@@H]2CN3C(=NC[C@@H]3Cc3ccc(O)cc3)N2C[C@H](C)NC(=O)CCC2CCCCC2)cc1 was read as VACV Venus inh inconclusive and Vaccinia mCherry -15%.
Screening CN(C(=O)COc1ccc(C(C)(C)C)cc1)C1CCS(=O)(=O)C1 (configuration not stated) returned VACV Venus inh -9% and Vaccinia mCherry inactive.
N#CCC(=O)Nc1ccc(C(=O)OCC(=O)c2c[nH]c3ccccc23)cc1 was read as VACV Venus inh 10% and Vaccinia mCherry -24%.
Cc1nnc2ccc(N3CCN(c4cccc(C(F)(F)F)c4)CC3)nn12 was read as VACV Venus inh -24% and Vaccinia mCherry -13%.
Screening Cc1cc(C)cc(N(CC(=O)NCC2CCCO2)S(=O)(=O)c2c(C)noc2C)c1 (configuration not stated) returned VACV Venus inh -8% and Vaccinia mCherry 9%.
For CNC(=O)c1ccc(NC(=O)c2cccc(C(F)(F)F)c2)cc1 the results were VACV Venus inh -17% and Vaccinia mCherry -7%.
Screening CC(C)C(=O)Nc1ncc(Cc2ccc(Cl)cc2)s1 returned VACV Venus inh -17% and Vaccinia mCherry -8%.
Cc1c(C(=O)Nc2cccc(Cl)c2)oc2ccc(S(=O)(=O)N(C)C3CCCCC3)cc12 was read as VACV Venus inh -16% and Vaccinia mCherry -19%.
O=C(O)C1CCN(C(=O)CSc2nc3cc(Cl)ccc3c(=O)n2Cc2ccccc2)CC1 was read as VACV Venus inh 3% and Vaccinia mCherry -3%.
`CN1CCN(S(=O)(=O)c2cc([N+](=O)[O-])ccc2N/N=C/c2ccc(Cl)cc2)CC1` gave VACV Venus inh -10% and Vaccinia mCherry -15%.
For CC1(C)CC(=O)CC(C)(C)N1OC(=O)c1ccco1 the results were VACV Venus inh -9% and Vaccinia mCherry inactive.
For C=CCn1c(Cc2ccc(OC)cc2)nnc1SCC(=O)NCCc1ccccc1 the results were VACV Venus inh -12% and Vaccinia mCherry inactive.

Of the compounds above, these contain fluorine:
Cc1nnc2ccc(N3CCN(c4cccc(C(F)(F)F)c4)CC3)nn12 was read as VACV Venus inh -24% and Vaccinia mCherry -13%.
For CNC(=O)c1ccc(NC(=O)c2cccc(C(F)(F)F)c2)cc1 the results were VACV Venus inh -17% and Vaccinia mCherry -7%.

New compounds follow:
`CC(=O)Oc1ccc2cc(-c3cccnc3)c(=O)oc2c1` gave VACV Venus inh -7% and Vaccinia mCherry -12%.
CC1CC(C)CN(S(=O)(=O)c2ccc3c(c2)NC(=O)C(C)C(=O)N3)C1 (configuration not stated) was read as VACV Venus inh -6% and Vaccinia mCherry -2%.
`Cc1cc(SCC(=O)OCC(=O)N(C)c2ccccc2)nc2ccccc12` gave VACV Venus inh -5% and Vaccinia mCherry inactive.
`CC(=O)Nc1sc2c(c1C(c1ccc(Cl)cc1)N1CCOCC1)CCCC2` (configuration not stated) gave VACV Venus inh 0% and Vaccinia mCherry -4%.
COCCN1Cc2cccc(C(=O)NC(C)CCc3ccco3)c2C1=O (configuration not stated) was read as VACV Venus inh -15% and Vaccinia mCherry 8%.
OC[C@@H]1CN(Cc2ccc3c(c2)OCO3)C[C@H](n2cnc3c(N4CCOCC4)ncnc32)O1 was read as VACV Venus inh -7% and Vaccinia mCherry -7%.
`CC1(C)CC(=O)C=C(c2n[nH]nc2-c2ccc(F)c(F)c2)C1` gave VACV Venus inh -15% and Vaccinia mCherry 0%.
Screening CCN1C(=O)/C(=c2\o/c(=C3\C=Cc4ccccc4N3CC)c(=O)n2CC)SC1=S returned VACV Venus inh -15% and Vaccinia mCherry inactive.
For C[C@H](CO)N1C[C@H](C)[C@@H](CN(C)C(=O)Nc2ccccc2)Oc2ccc(NS(=O)(=O)c3cn(C)cn3)cc2C1=O the results were VACV Venus inh -3% and Vaccinia mCherry inactive.
`Nc1nnnn1/N=C/c1ccccc1OCc1ccccc1` gave VACV Venus inh -16% and Vaccinia mCherry -1%.
`CN(C)S(=O)(=O)c1ccc(Cl)c(NC(=O)CN2CCCCCC2)c1` gave VACV Venus inh -15% and Vaccinia mCherry inactive.
`CCc1ccc([C@H]2C(C(=O)O)=C[C@@H](CC)N2S(=O)(=O)c2ccc(C)cc2)cc1` gave VACV Venus inh -15% and Vaccinia mCherry inactive.

By substructure, those above containing an aryl methoxy group
COc1ccc(C[C@@H]2CN3C(=NC[C@@H]3Cc3ccc(O)cc3)N2C[C@H](C)NC(=O)CCC2CCCCC2)cc1 was read as VACV Venus inh inconclusive and Vaccinia mCherry -15%.
For C=CCn1c(Cc2ccc(OC)cc2)nnc1SCC(=O)NCCc1ccccc1 the results were VACV Venus inh -12% and Vaccinia mCherry inactive.

The results go on.
Screening COc1cc(/C=C2/SC(=S)N(Cc3ccccc3)C2=O)ccc1O returned VACV Venus inh inactive and Vaccinia mCherry 60%[activator].
`CCN(CCCl)Cc1ccccc1Br` gave VACV Venus inh -24% and Vaccinia mCherry -21%.
For CC12CN3CC(C)(CN(C1)C3c1cccs1)C2O (configuration not stated) the results were VACV Venus inh -8% and Vaccinia mCherry -14%.
For COC(=O)CSc1nc2sc3c(c2c(=O)n1Cc1ccccc1)CCC(C(C)(C)C)C3 (configuration not stated) the results were VACV Venus inh 2% and Vaccinia mCherry 0%.
O=C(NCCc1nc(-c2ccccc2)cs1)c1ccc(Br)cc1 was read as VACV Venus inh -30% and Vaccinia mCherry inconclusive.
Screening O=C(NC1CCCCC1)C(c1ccccc1)N(Cc1cccnc1)C(=O)c1csnn1 (configuration not stated) returned VACV Venus inh -8% and Vaccinia mCherry -19%.
Screening CCCCc1ccc(NC(=O)CSc2nc3ccccc3nc2N2CCCCC2)cc1 returned VACV Venus inh -9% and Vaccinia mCherry -8%.
For CC(=O)Nc1ccc(NC(=O)c2ccc(NS(=O)(=O)c3cccc4cccnc34)cc2)cc1 the results were VACV Venus inh -11% and Vaccinia mCherry -5%.
COc1ccc([N+](=O)[O-])cc1NC(=O)c1ccc(C)o1 was read as VACV Venus inh -3% and Vaccinia mCherry -10%.
`Cc1ccc([N+](=O)[O-])cc1NC(=O)c1ccc2c(c1)OCO2` gave VACV Venus inh 2% and Vaccinia mCherry -3%.
For Cc1ccccc1NC(=O)c1c(C)oc2ccc(O)c(CN3CCCC3)c12 the results were VACV Venus inh -7% and Vaccinia mCherry -5%.
c1ccc(CCc2cc3ccccc3[nH]2)cc1 was read as VACV Venus inh -13% and Vaccinia mCherry -4%.
COc1ccc(C(=O)N2CCN(S(=O)(=O)c3ccc4c(c3)OCCO4)CC2)cc1 was read as VACV Venus inh -13% and Vaccinia mCherry inactive.
For O=C1C2C3C=CC(C3=C3CCCCC3)C2C(=O)N1Cc1ccccc1 (configuration not stated) the results were VACV Venus inh -1% and Vaccinia mCherry -3%.
`Cc1cccc(C)c1OCC(=O)NNC(=O)c1ccoc1C` gave VACV Venus inh -8% and Vaccinia mCherry -12%.
Screening CCc1ccc(NC(=O)CCc2c(C)n(C)c3cc(-c4ccccc4C)nn3c2=O)cc1 returned VACV Venus inh -9% and Vaccinia mCherry -13%.
Screening COC(=O)c1ccc(CNC(=O)c2ccc(NS(=O)(=O)c3ccc4[nH]c(=O)[nH]c4c3)cc2)cc1 returned VACV Venus inh -2% and Vaccinia mCherry -10%.
Screening Cc1ccc(S(=O)(=O)Nc2ccc(S(=O)(=O)NCC3CCCO3)cc2)cc1 (configuration not stated) returned VACV Venus inh 5% and Vaccinia mCherry inactive.
Screening O=S1(=O)CCN(Cc2ccc(Cl)c(Cl)c2)CC1 returned VACV Venus inh -11%.
`CCOC(=O)N1CCN(C(=O)c2ccc(OCC)c(OCC)c2)CC1` gave VACV Venus inh -10%.
Screening Cc1ccc(NC(=O)CS(=O)CC(=O)N(CC(=O)NC2CCCC2)c2cccc(C)c2C)cc1 (configuration not stated) returned VACV Venus inh -26% and Vaccinia mCherry -14%.
Screening CCOC(=O)C(/C=C(\C#N)C(=O)OCC)=C(/N)N1CCN(c2ccc(Cl)cc2)CC1 returned VACV Venus inh -25%.
Screening O=C(O)c1cc(=O)c2c3nc4ccccc4oc-3cc(=O)c2[nH]1 returned VACV Venus inh -10% and Vaccinia mCherry -10%.
CC(O)(c1ccccc1)c1nc(-c2cc3ccccc3o2)cs1 (configuration not stated) was read as VACV Venus inh -10% and Vaccinia mCherry -21%.
For COc1ccc([C@H]2CC(=O)C=C(c3ccc(C)c4ccccc34)C2)cc1 the results were VACV Venus inh -24% and Vaccinia mCherry -17%.
Screening COc1ccc(CN2CC[C@@H](N3CCOCC3)[C@H](O)C2)cc1F returned VACV Venus inh -6% and Vaccinia mCherry inactive.
Screening Cc1ccc(CC(NC(=O)c2ccccc2)C(=O)NC(Cc2ccccc2)C(=O)O)cc1 (configuration not stated) returned VACV Venus inh 11% and Vaccinia mCherry -6%.
COc1ccc(NC(=S)NCc2cccs2)cc1 was read as VACV Venus inh 3% and Vaccinia mCherry 0%.
Screening O=C(C[n+]1cc(Br)cc(Br)c1)c1cccc([N+](=O)[O-])c1 returned VACV Venus inh -9% and Vaccinia mCherry -16%.
Screening COc1cc(C(=O)ON=C2C=C(C)C(=O)C(C)=C2)cc(OC)c1OC returned VACV Venus inh 18% and Vaccinia mCherry -6%.
`O=C1[C@H](Cc2ccccc2)NCC=CC[C@@H](c2ccc(Cl)cc2)N1Cc1ccccc1` gave VACV Venus inh inconclusive and Vaccinia mCherry inactive.
Screening CC(=O)O[C@@H](C[C@@H](C)C1=C2C[C@H](O)C3[C@@]4(C)CCC(=O)C(C)(C)C4CC[C@]3(C)[C@@]2(C)CC1)[C@H]1OC1(C)C (some centres not stated) returned VACV Venus inh inconclusive and Vaccinia mCherry -9%.
`NC(=S)N=Nc1ccc(O)cc1` gave VACV Venus inh 4% and Vaccinia mCherry -8%.
Screening O=C(NCCO)C(=O)NCC(c1ccc2c(c1)OCO2)N1CCOCC1 (configuration not stated) returned VACV Venus inh -3% and Vaccinia mCherry -3%.
`COc1ccc(NC(=O)CN(C)C(=O)c2ccc(COc3ccccc3)o2)cc1` gave VACV Venus inh -19% and Vaccinia mCherry -7%.
Cc1cccc(CN2C(=O)c3ccccc3Sc3ccc(C(=O)NCc4ccco4)cc32)c1 was read as VACV Venus inh -11% and Vaccinia mCherry -10%.

3 compounds drawn at random from the list so far:
For COc1ccc([C@H]2CC(=O)C=C(c3ccc(C)c4ccccc34)C2)cc1 the results were VACV Venus inh -24% and Vaccinia mCherry -17%.
Screening CC(=O)O[C@@H](C[C@@H](C)C1=C2C[C@H](O)C3[C@@]4(C)CCC(=O)C(C)(C)C4CC[C@]3(C)[C@@]2(C)CC1)[C@H]1OC1(C)C (some centres not stated) returned VACV Venus inh inconclusive and Vaccinia mCherry -9%.
Screening O=C(NCCO)C(=O)NCC(c1ccc2c(c1)OCO2)N1CCOCC1 (configuration not stated) returned VACV Venus inh -3% and Vaccinia mCherry -3%.

New compounds follow:
For Cc1cc(C)n(CC(=O)c2ccccc2)c(=O)c1C#N the results were VACV Venus inh -9% and Vaccinia mCherry -13%.
Screening COc1ccccc1NC(=O)N(C1CCCC1)C1CCN(C(C)=O)CC1 returned VACV Venus inh -12% and Vaccinia mCherry -9%.
For Cc1noc(C)c1CN1C(=O)c2cccc([N+](=O)[O-])c2C1=O the results were VACV Venus inh -14% and Vaccinia mCherry -14%.
Screening CCOC(=O)N1CCC(NC(=O)CCCC(=O)O)CC1 returned VACV Venus inh -9% and Vaccinia mCherry inactive.
For Cc1cccc2nc(-c3cccnc3)c(Nc3ccccc3)n12 the results were VACV Venus inh -12% and Vaccinia mCherry inconclusive.
For Cc1ccc(NC(=O)Nc2nnc(-c3ccccc3F)s2)cc1 the results were VACV Venus inh 1% and Vaccinia mCherry -14%.
Screening CCNC(=O)c1cc2c(c(-c3cccc(-c4cncnc4)c3)n1)[C@H](CCO)N(C(C)=O)C2 returned VACV Venus inh 5% and Vaccinia mCherry -9%.
CC(=O)Nc1cnc(-c2cccc(C(=O)N3CCOCC3)c2)cn1 was read as VACV Venus inh -3% and Vaccinia mCherry 4%.
Screening O=C(O)c1cccc(Nc2nc(-c3cc4ccccc4oc3=O)cs2)c1 returned VACV Venus inh -14% and Vaccinia mCherry -1%.
Screening Cc1ccc(NC(=O)Cn2c(=O)n(CCCCCC(=O)NCc3ccc(F)cc3)c(=O)c3sccc32)cc1C returned VACV Venus inh -4% and Vaccinia mCherry -12%.
O=C(NNC(=S)Nc1ccccc1C(F)(F)F)c1cccnc1 was read as VACV Venus inh -6% and Vaccinia mCherry -2%.
Cc1ccc(-c2csc(/C(C#N)=C(\O)CN3CCN(C(=O)c4ccco4)CC3)n2)cc1 was read as VACV Venus inh -18%.
Screening COc1ccc(C(=O)Nc2ccccc2N2CCOCC2)cc1Br returned VACV Venus inh -6% and Vaccinia mCherry -8%.
Screening O=C(CSc1nnc(-c2ccncc2)o1)NC1CCCCC1 returned VACV Venus inh inconclusive and Vaccinia mCherry -25%.
`O=C(CN1CCN(S(=O)(=O)c2ccc(Br)cc2)CC1)Nc1ccc2c(c1)OCO2` gave VACV Venus inh -22%.
For CCOC(=O)c1c(NC(=O)COc2cccc3c2CCN(CC)C3=O)sc2c1CCC2 the results were VACV Venus inh 2% and Vaccinia mCherry 0%.
CCC(C)Nc1nc(-c2cccc(OC)c2O)nc2ccccc12 (configuration not stated) was read as VACV Venus inh inconclusive and Vaccinia mCherry inconclusive.
For Cc1noc(C)c1NC(=O)N(C)C[C@@H]1Oc2ccc(NS(=O)(=O)c3c(C)noc3C)cc2C(=O)N([C@H](C)CO)C[C@H]1C the results were VACV Venus inh 2% and Vaccinia mCherry inactive.
For CC(=O)c1[nH]c(C)c(C(=O)NCc2ccc(Cl)cc2)c1C the results were VACV Venus inh -29% and Vaccinia mCherry -29%.
